KCNQ2 pot: potentiators of rat KCNQ2 potassium channel | Potassium voltage-gated channel subfamily KQT member 2 (Rattus norvegicus), O88943 | CHO-K1 KCNQ2, FluxOR thallium flux fluorescence; stronger effect = higher value | B-score at 10 µM | 310,000 tested, 0.54% active;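 active = fluorescence ratio B-score at least 3 SD of library B-scores, with initial fluorescence B-score within 3 SD, cut at about 5.3 in these data; same plate scores as AID 2156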;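 note: B-score of peak minus minimum over baseline fluorescence ratio after K+ and Tl+ stimulus; positive B-score means potentiation of KCNQ2 with more thallium influx and brighter signal; only the inactives scoring about 0 or higher are listed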
Target sequence (O88943 whole entry, looked up): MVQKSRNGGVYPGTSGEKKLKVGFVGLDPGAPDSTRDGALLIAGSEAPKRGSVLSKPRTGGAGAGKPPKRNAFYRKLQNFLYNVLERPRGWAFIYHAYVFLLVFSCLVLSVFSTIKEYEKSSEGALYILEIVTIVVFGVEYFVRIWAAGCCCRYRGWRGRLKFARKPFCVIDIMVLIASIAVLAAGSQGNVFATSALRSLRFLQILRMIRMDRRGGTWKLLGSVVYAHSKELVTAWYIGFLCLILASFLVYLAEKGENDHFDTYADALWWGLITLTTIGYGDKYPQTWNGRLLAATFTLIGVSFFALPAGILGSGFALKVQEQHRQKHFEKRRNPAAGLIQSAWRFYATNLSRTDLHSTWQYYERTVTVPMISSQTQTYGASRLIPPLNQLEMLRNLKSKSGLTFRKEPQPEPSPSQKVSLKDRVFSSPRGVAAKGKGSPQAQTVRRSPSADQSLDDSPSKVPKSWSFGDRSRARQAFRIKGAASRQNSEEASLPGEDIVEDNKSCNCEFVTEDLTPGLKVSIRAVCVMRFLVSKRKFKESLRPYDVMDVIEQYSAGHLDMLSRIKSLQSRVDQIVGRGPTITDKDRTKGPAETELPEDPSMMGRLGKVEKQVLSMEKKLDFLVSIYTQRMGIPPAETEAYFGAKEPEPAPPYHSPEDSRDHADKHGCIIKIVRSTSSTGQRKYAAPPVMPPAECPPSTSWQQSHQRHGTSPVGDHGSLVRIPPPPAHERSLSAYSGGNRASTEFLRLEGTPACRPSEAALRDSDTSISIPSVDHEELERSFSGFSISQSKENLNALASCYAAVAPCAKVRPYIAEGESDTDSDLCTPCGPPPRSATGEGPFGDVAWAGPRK
KCNQ2 pot baseline: recorded beside KCNQ2 pot, whose call it bears; B-score; compound at 10 µM; measured here: initial fluorescence intensity artifact check;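 brightness before thallium and not channel activity; 0 = typical well and far values either way flag optical interference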
Numbers without * were called inactive. An excerpt, so the mix of outcomes need not match the whole.

SMILES | KCNQ2 pot | KCNQ2 pot baseline
COc1cccc(NC(=O)Cc2nnc(SCC(=O)NC(C)c3ccccc3)n2C)c1 (stereo not given) | 2.7 | -0.93
CC(C(=O)N1CCOCC1)n1cc([N+](=O)[O-])cn1 (stereo not given) | 1.7 | -1.3
CCOc1cc(/C=N\NC(=O)c2ccc(NC(=O)C(C)(C)C)cc2)ccc1OC(=O)c1ccc(OC)cc1 | 2.2 | 0.52
O=C(Nn1cnnc1)c1ccc(F)c(S(=O)(=O)N2CCCCC2)c1 | 0.81 | 2.8
O=C(Cc1ccccc1)NCCSCc1ccc(Cl)cc1 | 1.4 | 0.55
COc1ccc(-c2csc(NC(=O)Cc3ccccc3)n2)cc1OC | 0.86 | -1
CC(Oc1ccc(Br)cc1)C(=O)Nc1ccc(S(=O)(=O)N(C)C2CCN(C)CC2)cc1 (stereo not given) | 5.1 | 1.9
Cc1ccc(SC(C)C(=O)NCc2ccncc2)cc1 (stereo not given) | 1 | -0.39
Fc1ccc(OCCn2cnc(Cl)c2Cl)cc1 | 0.89 | -0.44
CCOc1ccc(NC(=S)NC(=O)/C=C/c2ccc(Br)cc2)c([N+](=O)[O-])c1 | 0.18 | -1.5
C=CCn1c(SCC(=O)N2CCc3ccccc3C2)nnc1-c1ccncc1 | 0.13 | -0.82
COc1ccc2nc(NC(=O)Cn3cnc4c(=O)n(C)c(=O)n(C)c43)sc2c1 | 2.7 | -0.39
COc1ccc(CCn2c(-c3ccccc3)nc3c(c(=O)c4ccccc4n3C)c2=O)cc1 | 0.97 | 0.7
O=C(Cn1cnc2ccccc2c1=O)NCCC(=O)N1CCN(c2ccccc2)CC1 | 0.86 | 0.15
CC(C)(C)NC(=O)C(c1cccs1)N(CC1CCCO1)C(=O)Cn1nnc(-c2cccs2)n1 (stereo not given) | 0.01 | -0.11
NC(=S)Nc1cc(Cl)cc(Cl)c1 | 0.24 | -0.46
Cc1ccc(NC(=O)CN2C(=O)NC(Cc3ccccc3)C2=O)cc1 (stereo not given) | 2.1 | 0.06
O=C(O)c1cccc(-c2ccc(/C=N/n3cnc4sc5c(c4c3=O)CCCC5)o2)c1 | 0.36 | 0.07
O=C1c2ccccc2NC2(CCCCC2)N1c1ccc(O)cc1 | 0.74 | 0.02
C[C@H](NC(=O)C1CC(=O)N(c2ccc3c(c2)OCCO3)C1)C(=O)NCc1ccco1 (stereo not given in full) | 0.01 | -0.16
N#Cc1ccc(C(=O)NCC2CCCCC2)cc1 | 0.42 | 1.2
CCOC(=O)n1c(=O)n(Cc2ccccc2C)c2ccccc21 | 0.16 | -0.19
O=C(Cn1c2ccccc2c(=O)c2ccccc21)Nc1ccccc1F | 0.82 | -0.26
COc1c(F)c(F)c(-c2csc(N)n2)c(F)c1F | 0.04 | -0.35
Cc1cc(=O)oc2c(C)c(OC(C)C(=O)N3CC[C@@]4(O)CCCC[C@H]4C3)ccc12 (stereo not given in full) | 0.98 | -0.64

Exported with tabs: entries from further up
canonical_smiles	KCNQ2 pot	KCNQ2 pot baseline
COc1ccc2nc(NC(=O)Cn3cnc4c(=O)n(C)c(=O)n(C)c43)sc2c1	2.7	-0.39
COc1ccc(CCn2c(-c3ccccc3)nc3c(c(=O)c4ccccc4n3C)c2=O)cc1	0.97	0.7
O=C(Cn1cnc2ccccc2c1=O)NCCC(=O)N1CCN(c2ccccc2)CC1	0.86	0.15
CC(C)(C)NC(=O)C(c1cccs1)N(CC1CCCO1)C(=O)Cn1nnc(-c2cccs2)n1 (stereo not given)	0.01	-0.11
NC(=S)Nc1cc(Cl)cc(Cl)c1	0.24	-0.46

Additional entries
SMILES | KCNQ2 pot | KCNQ2 pot baseline
Cc1cccc(C)c1NC(=O)C1CSC2(C)CCC(=O)N12 (stereo not given) | 0.57 | 0.32
CCOc1ccc(C(=O)NC(=S)Nc2ncccc2C)cc1[N+](=O)[O-] | 1 | -0.04
CN1CCN(C(=O)c2ccccc2NC(=O)CCN2C(=O)c3ccccc3C2=O)CC1 | 0.13 | -0.16
O=C(c1ccccc1)c1ccc(OC(=O)N2CCCC2)cc1 | 0.09 | -0.41
O=C(NCc1ccccc1)C1=C[C@@H](c2coc3ccccc3c2=O)C[C@@H](OCCCCO)O1 | 0.36 | -0.28
COC(=O)c1cccc(NC(=O)c2cccnc2C(=O)O)c1C | 0.87 | -0.99
CC1(C)OC(=O)CC1C(=O)NCc1ccccc1 (stereo not given) | 1.1 | 0.4
CCc1nnc(NS(=O)(=O)c2ccccc2)s1 | 0.52 | -1.3
COc1ccc2oc(=O)cc(CN(C)Cc3ccccc3)c2c1 | 1.6 | -0.12
O=C(NCc1n[nH]c(=S)n1-c1cccc(C(F)(F)F)c1)c1ccc(S(=O)(=O)N2CCCC2)cc1 | 1.3 | -1.4
CCCOc1ccc(NC(=O)CC2Nc3ccccc3NC2=O)cc1 (stereo not given) | 0.78 | -0.31
CC(C)C(OC(=O)c1cc2sccc2n1C)C(=O)NCC1CCCO1 (stereo not given) | 0.99 | 0.9
CCOc1ccc(S(=O)(=O)NCCC(=O)NCCc2ccc(OCC)c(OCC)c2)cc1 | 1.3 | -0.38
Clc1ccc(/C=N/N2CCN(Cc3ccccc3Cl)CC2)cc1 | 1.1 | -0.41
Cc1ccc(OC(=O)C23CC4CC(CC(C4)C2)C3)c(C)n1 | 0.55 | 1.3
COc1ccc(CN=CC2=C(O)CC(C)(C)CC2=O)cc1 | 1.2 | 0.36
COc1ccc(N2CCN(C(=O)c3ccc(N(C)S(=O)(=O)c4ccc(OC)cc4)cc3)CC2)cc1 | 0.55 | 0.06
Cc1nc(CSc2nnc(N)s2)cs1 | 0.03 | 1.6
NC(=O)CSc1nnc2ccc(-c3ccc(F)cc3)nn12 | 1.7 | -0.67
CCOC(=O)CNC(=S)N(CCCN1CCCCC1)Cc1cccs1 | 0.6 | -2.1
O=S(=O)(NCC(O)c1ccccc1)c1ccc(-c2ccccn2)s1 (stereo not given) | 0.01 | 0.14
Cn1c(SCC(=O)Nc2ccc(N3CCOCC3)cc2)nnc1-c1ccco1 | 0.14 | 0.21
O=C(Nc1cc(S(=O)(=O)N2CCCCC2)ccc1Cl)C1=NN(c2ccccc2)C(=O)CC1 | 1.4 | -0.61
CCOc1ccc(NC(=O)CC2C(=O)N(c3ccc(OCC)cc3)C(=S)N2C2CC2)cc1 (stereo not given) | 0.02 | 0.13
Cc1cc(NC(=O)C23CCC(C)(C(=O)O2)C3(C)C)no1 (stereo not given) | 0.77 | -0.16
SMILES | KCNQ2 pot | KCNQ2 pot baseline
CN1CCN(NC(=O)Nc2ccc(F)cc2)CC1 | 1 | 0.24
CCCS(=O)(=O)N1CCCC(C(=O)NCCCN(CC)c2cccc(C)c2)C1 (stereo not given) | 1 | -0.89
Cc1cc([N+](=O)[O-])ccc1-c1ccc(/C=N/NC(=O)Cc2ccccc2)o1 | 0.44 | 0.19
COc1ccc(/C(O)=C2/C(=O)C(=O)N(Cc3cccnc3)C2c2ccccn2)cc1 (stereo not given) | 1.6 | -2.6
O=Cc1cn(CCC(=O)O)nc1-c1cccc(Cl)c1 | 1.9 | -1.6
CCN1CC(CN(C)Cc2nc(-c3ccc(OC)c4ccccc34)oc2C)CC1=O (stereo not given) | 0.49 | -0.78
C=CCn1c(-c2ccccc2)n[nH]c1=S | 0.25 | 0.44
CC(C)(C)C1CCC(=NOC(=O)c2ccc(F)cc2)CC1 (stereo not given) | 1.2 | 0.38
CC(C)CC(=O)N1CCC(N2CCN(c3ccccc3)CC2)CC1 | 0.46 | 2.6
CN1C(=O)c2cccc3c(S(=O)(=O)Nc4ccc(O)c(C(=O)O)c4)ccc1c23 | 0.02 | -2.1
O=C(Nc1ccc(CN2CCCCC2)cc1)c1ccc(Br)o1 | 0.67 | 2.6
COc1ccc(-c2nc(CSCC(=O)NC3CCN(Cc4ccccc4)CC3)c(C)o2)cc1OC | 1.7 | 0.13
Cc1ccc(S(=O)(=O)N2CCOCC2)cc1C(=O)NCC1CCCO1 (stereo not given) | 0.28 | 0.33
O=C(Nc1ccccc1F)c1ccc(CNS(=O)(=O)c2cccc(C(F)(F)F)c2)cc1 | 0.76 | 1.2
Cc1ccc(CNC(=O)c2cnc(-c3ccccn3)nc2C(F)(F)F)cc1 | 0.49 | -1.9
COc1ccc(S(=O)(=O)N2CC(O)CC2C(=O)Nc2cccnc2)cc1 (stereo not given) | 0.07 | -2
CCS(=O)(=O)N1CCC(C(=O)O)CC1 | 1.2 | -0.38
O=C(c1ccccc1)c1c[nH]c2cc3c(cc2c1=O)OCO3 | 1.1 | 1.4
CC(=O)c1nc(N2C(=O)CC(Cc3ccc(C)cc3)C2=O)sc1C (stereo not given) | 0.09 | -0.05
CCCCc1nc(NCc2ccccc2)c(C#N)c2c1COC(C)(C)C2 | 0.47 | 0.55
O=S1(=O)CCN(Cc2ccc(F)cc2)CC1 | 0.79 | 0.37
COc1ccc(-c2n[nH]c(C)c2-c2ccc(Cl)cc2)c(O)c1OC | 0.48 | -0.19
COc1cccc(CN(C)C(=O)c2cccc(S(=O)(=O)N3CCN(c4ccc(F)cc4)CC3)c2)c1OC | 0.33 | 0.35
CN(CC(=O)O/N=C(\N)c1ccccn1)S(=O)(=O)c1cc(Cl)ccc1Cl | 0.12 | 1.7
O=S(=O)(NCc1ccc(Cl)cc1)c1cnc[nH]1 | 0.53 | -1.1
SMILES | KCNQ2 pot | KCNQ2 pot baseline
COc1ccccc1CC(NC(C)=O)C(=O)NC1CCN(C(=O)Nc2ccccc2Cl)CC1 (stereo not given) | 0.68 | 0.83
CCOC(=O)c1sc2nc3c(cc2c1N)COC(C(C)C)C3 (stereo not given) | 0.01 | -0.94
N#CNC1=NCN(CCc2ccccc2)CN1 | 0.95 | -2.7
CCOC(=O)Cn1cc(/C=C(/C#N)C(=O)NC(C)C)c2ccccc21 | 1.1 | 0.84
O=C1CN(C(=O)c2cc3ccccc3oc2=O)C(c2ccccc2)c2cc(F)ccc2N1 (stereo not given) | 2.3 | -0.25
COc1ccc(C(=O)N/C(=C/c2cccs2)c2nc3ccccc3[nH]2)cc1OC | 1.1 | 2.5
COc1ccc(C(=O)NCC(=O)NCc2cc(=O)n(C)c(=O)n2C)cc1 | 0.34 | 1.4
COc1cccc(CN(C)C(=O)c2cc(COc3ccc(-n4cncn4)cc3)on2)c1 | 2.2 | -1.6
COc1ccc(OCCSc2nnc(CCNC(=O)c3ccc(Cl)c(Cl)c3)n2C)cc1 | 0.25 | 1.8
CCc1ccccc1NC(=O)CSc1nnc([C@@H](NC(=O)OC(C)(C)C)C(C)CC)o1 (stereo not given in full) | 1.7 | -1.9
COC(=O)C1=C(C)N(C)C(=O)NC1c1ccsc1 (stereo not given) | 1.2 | 0.02
CNC(=S)N/N=C(\C)c1ccccc1 | 0.57 | 0.01
O=C1CCCC2=C1C(c1ccccc1)NC(=S)N2 (stereo not given) | 0.03 | 1.2
O=C(Nc1ccc(OC(F)F)cc1)c1cc[n+]([O-])cc1 | 1.3 | 0.01
Nc1nnc(-c2ccco2)s1 | 0.89 | -0.67
COc1ccc(CCCc2nc3ccccc3[nH]2)cc1 | 0.34 | 0.97
CCOC(=O)c1csc(COc2ccc(OC)cc2)n1 | 0.08 | 0.99
C/C(=N\NS(=O)(=O)c1cccc([N+](=O)[O-])c1)c1cccnc1 | 1.9 | 1.1
O=c1nc2n(c3ncccc13)CCC2 | 0.23 | -0.34
COc1cccc(/C=N/NC(=O)CC(C)O)c1OC/C=C/c1ccccc1 (stereo not given) | 2.3 | 1
COCCn1c(SCC(=O)NC2CCCCC2)nnc1-c1ccco1 | 0.54 | 1.6
CC(C)n1c(=O)[nH][nH]c1=S | 0.6 | 1.8
Cn1c(=O)c2ncn(CC(=O)N=Nc3c(O)[nH]c4ccccc34)c2n(C)c1=O | 0.08 | 0.75
Cc1cccc(NC(=O)CN2C(=O)/C(=C3\SC(=S)N(CC4CCCO4)C3=O)c3ccccc32)c1 (stereo not given) | 0.16 | -1.8
COc1cc(NC(=O)c2cc3ccccc3o2)c(OC)cc1Br | 0.92 | -0.89

The list goes on, overlapping the part above by 3 compounds.
SMILES | KCNQ2 pot | KCNQ2 pot baseline
Cn1c(=O)c2ncn(CC(=O)N=Nc3c(O)[nH]c4ccccc34)c2n(C)c1=O | 0.08 | 0.75
Cc1cccc(NC(=O)CN2C(=O)/C(=C3\SC(=S)N(CC4CCCO4)C3=O)c3ccccc32)c1 (stereo not given) | 0.16 | -1.8
COc1cc(NC(=O)c2cc3ccccc3o2)c(OC)cc1Br | 0.92 | -0.89
CCc1ccc(S(=O)(=O)Nc2c(C)nn(C)c2C)cc1 | 1.4 | -0.73
c1ccc(-c2nn[nH]n2)nc1 | 0.58 | 1.3
COc1cc(/C=C/C(=O)NC2CCCCC2)cc(OC)c1OC | 0.25 | 0.01
CSc1nccc(Oc2cncc(Cl)c2)n1 | 0.03 | 0.98
Cc1ccc(/C(O)=C/C(=O)C(=O)NNC(=O)C(O)(c2ccccc2)c2ccccc2)cc1 | 0.1 | -1.6
COc1cc(/C=c2/sc3nc(-c4ccccc4)c(-c4ccccc4)n3c2=O)cc(OC)c1OC | 0.68 | 0.5
O=C(O)COCC(=O)N1CCc2c([nH]c3ccccc23)C1C(F)(F)F (stereo not given) | 0.49 | -0.14

Entries shown so far that have a nitro group on carbon, in the order listed:
SMILES | KCNQ2 pot | KCNQ2 pot baseline
CC(C(=O)N1CCOCC1)n1cc([N+](=O)[O-])cn1 (stereo not given) | 1.7 | -1.3
CCOc1ccc(NC(=S)NC(=O)/C=C/c2ccc(Br)cc2)c([N+](=O)[O-])c1 | 0.18 | -1.5
CCOc1ccc(C(=O)NC(=S)Nc2ncccc2C)cc1[N+](=O)[O-] | 1 | -0.04
Cc1cc([N+](=O)[O-])ccc1-c1ccc(/C=N/NC(=O)Cc2ccccc2)o1 | 0.44 | 0.19
C/C(=N\NS(=O)(=O)c1cccc([N+](=O)[O-])c1)c1cccnc1 | 1.9 | 1.1

Record cards (already shown). Order of values: KCNQ2 pot	KCNQ2 pot baseline
`CSc1nccc(Oc2cncc(Cl)c2)n1` is entered as 0.03	0.98
`O=C(O)COCC(=O)N1CCc2c([nH]c3ccccc23)C1C(F)(F)F` (stereo not given) is entered as 0.49	-0.14
